High-throughput results deposited in PubChem by Broad Institute.
Vaccinia inh: blocks a specific stage of Vaccinia orthopoxvirus infection, primary screen, cell-based, single point; Vaccinia-infected cells, mCherry/Venus stage reporter fluorescence; active compounds read low; some inactives read as strong as hits; activity change (mCherry), % (no concentration beside the values); 89,000 tested, 0.01% active;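 active = mCherry past -33% and 40 or more points under the early reporter, replicates agreeing; inconclusive = past -33% without that gap or agreement; tested in A549 cells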;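 note: scaled between vehicle wells and reference inhibitor wells; 23 nL library stock went into each well; one replicate is shown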
Vaccinia inh Venus: also measured in Vaccinia inh; calls as there; activity change (Venus), %; measured here: Venus reporter, other viral stage;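 negative = less Venus signal; first of two replicates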
The depositor's hits bear a star; ? = inconclusive; . = not tested or not shown; & = joins results of further samples. This is a subset; the hit share may differ from the screen's.

SMILES | Vaccinia inh | Vaccinia inh Venus
CN1C[C@@H]2[C@H](c3ccccc31)[C@H](CO)N2C(=O)C1CC1 | 8 | 18
C[C@@H]1CN([C@H](C)CO)C(=O)c2cc(NC(=O)CCN3CCOCC3)ccc2O[C@H]1CN(C)S(C)(=O)=O | 10 | -2
COc1ccccc1-c1ccc([C@@H]2[C@H](CO)N3CCCCN(C(=O)c4cccnc4)C[C@@H]23)cc1 | -5 | 1
C(=C\c1ccc(C2[C@H]3CNC[C@@H]2N3Cc2ccc3c(c2)OCO3)cc1)/c1ccccc1 (some centres undefined) | 3 | -3
CNC[C@@H]1Oc2cc(C#CC3(O)CCCC3)ccc2S(=O)(=O)N([C@H](C)CO)C[C@H]1C | 2 | 1
C[C@@H]1CCCCO[C@@H](CN(C)Cc2ccc3c(c2)OCO3)[C@@H](C)CN([C@@H](C)CO)C(=O)c2cc(NC(=O)Nc3ccccc3)ccc2O1 | -33 | -24
CN1C(=O)c2cc(NC(=O)c3cccc(C(F)(F)F)c3)ccc2OC[C@H]2O[C@H](CC(=O)O)CC[C@@H]21 | 13 | 13
C=CC[C@]1(C(=O)NCc2ccccc2)COC(c2ccc(OCCCO)cc2)=N1 | -8 | -7
C[C@H]1CN([C@@H](C)CO)C(=O)c2cccc(NC(=O)C3CCOCC3)c2O[C@@H]1CN(C)CC1CCCCC1 | 1 | 0
O=C(NCc1ccc(F)cc1)[C@H]1N[C@H]2c3ccc(-c4ccccc4)c(=O)n3C[C@H]2[C@@H]1CO | 25 | 14
C[C@@H]1CN([C@H](C)CO)C(=O)c2cc(NC(=O)CCC(F)(F)F)ccc2O[C@@H]1CN(C)S(=O)(=O)c1ccc(Cl)cc1 | -28 | -16
Cc1cc(C(=O)Nc2cccc3c2O[C@H](CN(C)Cc2ccncc2)[C@H](C)CN([C@@H](C)CO)C3=O)n(C)n1 | -6 | -21
O=C(Nc1cccc(F)c1)N1CCCCN2[C@@H](CO)[C@@H](c3ccc(C#Cc4cccnc4)cc3)[C@@H]2C1 | ? | .
CO[C@@H]1CN(C)C(=O)c2ccc(NC(C)=O)cc2OC[C@H](C)N(C(=O)C2CC2)C[C@H]1C | 2 | 3
C[C@H](CO)N1C[C@H](C)[C@H](CN(C)Cc2ccc(C(F)(F)F)cc2)OCCCC[C@H](C)Oc2ccc(NC(=O)Nc3ccc(F)cc3)cc2C1=O | ? | .
CN(C)CC#Cc1ccc([C@@H]2[C@H]3CN(C(=O)Cc4ccccc4)CC(=O)N3[C@H]2CO)cc1 | 8 | 6
CCC(=O)N(C)C[C@@H]1Oc2cc(C#CCN(C)C)ccc2S(=O)(=O)N([C@H](C)CO)C[C@H]1C | 10 | 14
Cc1noc(C)c1NC(=O)N(C)C[C@@H]1Oc2c(NC(=O)c3nc4ccccc4s3)cccc2C(=O)N([C@@H](C)CO)C[C@H]1C | 15 | 5
C[C@H]1CN([C@@H](C)CO)C(=O)Cc2cc(NC(=O)NC3CCCCC3)ccc2O[C@@H]1CN(C)Cc1ccc(C(=O)Nc2ccccc2N)cc1 | 4 | 4
CN(C)Cc1cn(CC[C@H]2CC[C@H](NC(=O)Cc3cccnc3)[C@@H](CO)O2)nn1 | -2 | -2
COc1ccc(S(=O)(=O)N(C)C[C@@H]2OCCCC[C@H](C)Oc3ccc(NC(=O)Cc4ccccc4)cc3C(=O)N([C@@H](C)CO)C[C@@H]2C)cc1 | -18 | -12
COc1ccc(S(=O)(=O)N(C)C[C@H]2Oc3ccc(NC(=O)Nc4ccccc4)cc3C(=O)N([C@H](C)CO)C[C@@H]2C)cc1 | 4 | 3
COCC(=O)N(C)C[C@H]1Oc2cc(C#CC(C)C)ccc2S(=O)(=O)N([C@H](C)CO)C[C@H]1C | -1 | -5
C[C@H]1CN([C@@H](C)CO)C(=O)Cc2cc(NC(=O)Cc3ccccc3)ccc2O[C@@H]1CN(C)C | 10 | 7
C[C@@H]1CN([C@H](C)CO)C(=O)c2cc(NC(=O)c3ccccc3)ccc2O[C@@H](C)CCCCO[C@H]1CN(C)C(=O)C1CCCCC1 | ? | .
O=C(N[C@@H]1CC[C@H](CCNC(=O)C2CCC2)O[C@H]1CO)c1ccccn1 | 1 | -6
O=S(=O)(c1ccccc1)N1CC2(C1)[C@H](c1ccccc1)[C@@H](CO)N2CC1CCCC1 | -16 | -7
C[C@@H]1CN([C@H](C)CO)S(=O)(=O)c2ccc(-c3cncnc3)cc2O[C@@H]1CN(C)Cc1cccnc1 | 24 | 2
O=C(NCC[C@@H]1CC[C@@H](NC(=O)C2CCCC2)[C@H](CO)O1)c1ccc(F)cc1 | -1 | -2
NCC[C@H]1CC[C@@H](NC(=O)Nc2ccc(F)cc2)[C@@H](CO)O1 | -3 | 3

Complete entries, quoted from the list. Order of screens: Vaccinia inh, Vaccinia inh Venus
Entry for C[C@@H]1CN([C@H](C)CO)C(=O)c2cc(NC(=O)CCC(F)(F)F)ccc2O[C@@H]1CN(C)S(=O)(=O)c1ccc(Cl)cc1 → -28, -16
Entry for C[C@H](CO)N1C[C@H](C)[C@H](CN(C)Cc2ccc(C(F)(F)F)cc2)OCCCC[C@H](C)Oc2ccc(NC(=O)Nc3ccc(F)cc3)cc2C1=O → ?, .
Entry for CN(C)Cc1cn(CC[C@H]2CC[C@H](NC(=O)Cc3cccnc3)[C@@H](CO)O2)nn1 → -2, -2
Entry for C(=C\c1ccc(C2[C@H]3CNC[C@@H]2N3Cc2ccc3c(c2)OCO3)cc1)/c1ccccc1 (some centres undefined) → 3, -3

Part of the list above, as labelled records.
SMILES: COCC(=O)N(C)C[C@H]1Oc2cc(C#CC(C)C)ccc2S(=O)(=O)N([C@H](C)CO)C[C@H]1C
  Vaccinia inh: -1; Vaccinia inh Venus: -5

SMILES: C[C@H]1CN([C@@H](C)CO)C(=O)Cc2cc(NC(=O)Cc3ccccc3)ccc2O[C@@H]1CN(C)C
  Vaccinia inh: 10; Vaccinia inh Venus: 7

SMILES: C[C@@H]1CN([C@H](C)CO)C(=O)c2cc(NC(=O)c3ccccc3)ccc2O[C@@H](C)CCCCO[C@H]1CN(C)C(=O)C1CCCCC1
  Vaccinia inh: ?; Vaccinia inh Venus: .

SMILES: O=C(N[C@@H]1CC[C@H](CCNC(=O)C2CCC2)O[C@H]1CO)c1ccccn1
  Vaccinia inh: 1; Vaccinia inh Venus: -6

Following part
SMILES | Vaccinia inh | Vaccinia inh Venus
Cc1noc(C)c1NC(=O)Nc1ccc2c(c1)C(=O)N([C@@H](C)CO)C[C@@H](C)[C@H](CN(C)S(=O)(=O)c1ccc(F)cc1)OCCCC[C@H](C)O2 | 17 | 10
O=C(C[C@@H]1C[C@@H]2c3cc(NC(=O)NC4CCCC4)ccc3O[C@@H]2[C@@H](CO)O1)NCc1ccccn1 | 23 | 12
CC(=O)N(C)C[C@H]1Oc2cc(C#CC(C)(C)O)ccc2S(=O)(=O)N([C@@H](C)CO)C[C@H]1C | 31 | 16
CN1[C@@H]2c3ccc(-c4ccccc4)c(=O)n3C[C@H]1[C@H](CO)[C@H]2C(=O)NCCc1ccccc1 | 9 | 11
COCC(=O)N(C)C[C@@H]1Oc2cc(C#CCC3CCCC3)ccc2S(=O)(=O)N([C@H](C)CO)C[C@H]1C | -32 | -20
C[C@@H]1CN([C@@H](C)CO)C(=O)c2cccc(NC(=O)CCCCCC(=O)Nc3ccccc3N)c2O[C@H]1CN(C)C(=O)Nc1ccc(F)cc1 | 13 | 2
C[C@H](CO)N1C[C@H](C)[C@H](CN(C)C(=O)Oc2ccc3ccccc3c2)OCc2cnnn2CCCC1=O | -8 | -6
CC(C)NC(=O)Nc1ccc2c(c1)C(=O)N([C@H](C)CO)C[C@@H](C)[C@H](CN(C)C(=O)Cc1ccccc1)OCCCC[C@@H](C)O2 | -21 | -16
C[C@H](CO)N1C[C@H](C)[C@H](CN(C)C(=O)NC2CCCCC2)Oc2ccc(NC(=O)C3CCCCC3)cc2CC1=O | 7 | -3
COc1ccc(S(=O)(=O)N(C)C[C@@H]2OCCCC[C@@H](C)Oc3ccc(NC(=O)CCCN(C)C)cc3C(=O)N([C@@H](C)CO)C[C@H]2C)cc1 | 12 | 4
CCN(C[C@H]1[C@H](c2ccccc2)[C@@H](CO)N1CC1CC1)C(=O)c1cccc(F)c1 | 8 | 3
C[C@@H]1CCCCO[C@H](CN(C)C(=O)C2CCCCC2)[C@@H](C)CN([C@H](C)CO)C(=O)c2cc(NS(=O)(=O)c3cccs3)ccc2O1 | -20 | -14
C[C@@H]1CN([C@H](C)CO)C(=O)c2cccc(NC(=O)Nc3cccc4ccccc34)c2O[C@H]1CN(C)S(C)(=O)=O | 3 | -2
COCC#Cc1cnc2c(c1)C(=O)N([C@H](C)CO)C[C@@H](C)[C@@H](CN(C)C(=O)Nc1ccccc1OC)O2 | 9 | 6
C[C@H]1CN([C@@H](C)CO)C(=O)c2cc(NC(=O)Cc3cn(C)c4ccccc34)ccc2O[C@H]1CN(C)Cc1ccncc1 | 8 | -1
C[C@H]1CN([C@@H](C)CO)C(=O)Cc2cc(NS(=O)(=O)c3ccc(Cl)cc3)ccc2O[C@@H]1CN(C)S(=O)(=O)c1ccccc1 | 9 | -3
O=C(C1CCC1)N1CCCCN2[C@@H](CO)[C@@H](c3ccc(-c4cccc(F)c4)cc3)[C@@H]2C1 | -29 | -26
C[C@@H]1CN([C@@H](C)CO)C(=O)c2cc(NC(=O)CCN3CCOCC3)ccc2O[C@@H]1CN(C)C(=O)Nc1cccc2ccccc12 | 28 | 24
CCC(=O)N1[C@@H]2c3cccc(=O)n3C[C@@H]2[C@@H](CO)[C@@H]1C(=O)N1CCCCC1 | -1 | -4
C[C@@H]1CN([C@@H](C)CO)C(=O)c2cc(NC(=O)Cn3cnnn3)ccc2O[C@@H]1CN(C)C(=O)Nc1ccc(C(F)(F)F)cc1 | 19 | 20
C[C@H](CO)N1C[C@H](C)[C@H](CN(C)S(=O)(=O)c2ccccc2)Oc2c(NC(=O)Nc3ccccc3)cccc2C1=O | -17 | -11
CCC(=O)NC[C@@H]1[C@@H](c2ccc(-c3cccc(F)c3)cc2)[C@@H](CO)N1C(=O)CC | 1 | 3
C[C@H]1CN([C@@H](C)CO)C(=O)CCCn2nncc2CO[C@@H]1CN(C)C(=O)Nc1ccccc1F | 13 | 8
CC(C)NC(=O)N(C)C[C@H]1OCCCC[C@@H](C)Oc2ccc(N(C)C)cc2C(=O)N([C@H](C)CO)C[C@@H]1C | 27&37 | 26&12
C[C@@H]1CN([C@H](C)CO)C(=O)c2cccc(NC(=O)NC3CCCCC3)c2O[C@@H]1CN(C)C(=O)Nc1ccccc1 | 2 | 2
O=C(C[C@@H]1CC[C@@H]2[C@H](COC[C@H](O)CN2C(=O)Nc2ccc(F)cc2)O1)NCCc1ccccc1 | -9 | -6
O=C(Nc1ccccc1F)N1CCCCN2[C@H](CO)[C@H](c3ccc(-c4cccnc4)cc3)[C@@H]2C1 | 30 | 3
Cc1noc(C)c1NC(=O)N(C)C[C@@H]1Oc2ccc(NC(=O)C3CC3)cc2C(=O)N([C@@H](C)CO)C[C@H]1C | 4 | 2
CO[C@@H]1CN(C)C(=O)c2cc(NC(=O)c3cnccn3)ccc2OC[C@@H](C)NC[C@H]1C | 19 | 22
O=C(C[C@@H]1CC[C@@H]2[C@H](COC[C@H](O)CN2C(=O)c2ccc(F)cc2)O1)NCCCN1CCOCC1 | 5 | -2

Compounds above containing a Cl atom (two):
SMILES | Vaccinia inh | Vaccinia inh Venus
C[C@@H]1CN([C@H](C)CO)C(=O)c2cc(NC(=O)CCC(F)(F)F)ccc2O[C@@H]1CN(C)S(=O)(=O)c1ccc(Cl)cc1 | -28 | -16
C[C@H]1CN([C@@H](C)CO)C(=O)Cc2cc(NS(=O)(=O)c3ccc(Cl)cc3)ccc2O[C@@H]1CN(C)S(=O)(=O)c1ccccc1 | 9 | -3

Carrying on.
SMILES | Vaccinia inh | Vaccinia inh Venus
CO[C@H]1CN(C)C(=O)c2cc(NS(=O)(=O)c3cccc(C)c3)ccc2OC[C@H](C)NC[C@H]1C | 9 | 6
COc1ccc(-c2cn(CC[C@@H]3CC[C@H](NC(=O)Nc4ccc(F)cc4)[C@H](CO)O3)nn2)cc1 | 28 | 16
CCCNC(=O)Nc1ccc2c(c1)OC[C@H](C)N(C(=O)C1CCC1)C[C@H](C)[C@@H](OC)CN(C)C2=O | 21 | 16
CCC(=O)N1C[C@@H]2[C@H](c3ccccc31)[C@H](CO)N2C(=O)CC1CC1 | 8 | 5
O=C(Cc1ccccc1)N1CCCCN2[C@@H](CO)[C@@H](c3ccc(-c4ccccc4)cc3)[C@@H]2C1 | ? | .
CO[C@H]1CN(C)C(=O)c2ccc(NC(C)=O)cc2OC[C@H](C)N(Cc2ccncc2)C[C@@H]1C | 2 | -1
C[C@@H]1CN([C@H](C)CO)C(=O)c2cc(NC(=O)CCCN(C)C)ccc2O[C@H]1CN(C)S(=O)(=O)c1ccccc1 | 11 | 2
COc1cccc(S(=O)(=O)N(C)C[C@@H]2Oc3ncc(C#CCC(C)C)cc3C(=O)N([C@H](C)CO)C[C@@H]2C)c1 | -11 | -7
COc1ccc(-c2ccc3c(c2)[C@H]2[C@H](CCN2C(=O)c2cccc(F)c2)[C@@H](CO)N3)cc1 | -7 | -8
CNC(=O)C[C@@H]1CC[C@H]2[C@@H](COC[C@H](O)CN2Cc2ccncc2)O1 | -4 | -6
O=C(c1ccccc1)N1CC2(C1)[C@H](c1ccccc1)[C@H](CO)N2CC1CC1 | 5 | -6
CCCC#Cc1ccc2c(c1)O[C@H](CN(C)C(=O)c1ccccc1)[C@H](C)CN([C@@H](C)CO)S2(=O)=O | ? | .
C[C@H]1CCCCO[C@H](CN(C)C(=O)Nc2ccccc2)[C@@H](C)CN([C@@H](C)CO)C(=O)c2cc(NS(=O)(=O)c3cn(C)cn3)ccc2O1 | 10 | 4
CNC[C@H]1OCCCC[C@H](C)Oc2ccc(NS(C)(=O)=O)cc2C(=O)N([C@@H](C)CO)C[C@@H]1C | -5 | 6
